# Rango-impB inh – qHTS Assay for Inhibitors of Rango (Ran-regulated importin-beta cargo) - Importin beta complex formation | Potency, µM (doses to about 92.2 µM), without a hit: at the highest dose inhibition of complex formation | Importin subunit beta-1 (Homo sapiens), Q14974 | AID 540263, 2011 | Rango CFP/YFP FRET sensor + importin beta, 45 min | 0.031% of 340,000 active; active = rising FRET ratio curve, often small or poorly fitted; inconclusive = mostly compound fluorescence or quenching in the first reads; inactive = flat curves in all reads;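 further: potency means the concentration at half of the fitted maximal effect; 0% = DMSO wells and 100% = buffer wells lacking importin beta; nearly all actives have a fitted effect of over 15% in size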
# Target sequence (Q14974 whole entry, looked up): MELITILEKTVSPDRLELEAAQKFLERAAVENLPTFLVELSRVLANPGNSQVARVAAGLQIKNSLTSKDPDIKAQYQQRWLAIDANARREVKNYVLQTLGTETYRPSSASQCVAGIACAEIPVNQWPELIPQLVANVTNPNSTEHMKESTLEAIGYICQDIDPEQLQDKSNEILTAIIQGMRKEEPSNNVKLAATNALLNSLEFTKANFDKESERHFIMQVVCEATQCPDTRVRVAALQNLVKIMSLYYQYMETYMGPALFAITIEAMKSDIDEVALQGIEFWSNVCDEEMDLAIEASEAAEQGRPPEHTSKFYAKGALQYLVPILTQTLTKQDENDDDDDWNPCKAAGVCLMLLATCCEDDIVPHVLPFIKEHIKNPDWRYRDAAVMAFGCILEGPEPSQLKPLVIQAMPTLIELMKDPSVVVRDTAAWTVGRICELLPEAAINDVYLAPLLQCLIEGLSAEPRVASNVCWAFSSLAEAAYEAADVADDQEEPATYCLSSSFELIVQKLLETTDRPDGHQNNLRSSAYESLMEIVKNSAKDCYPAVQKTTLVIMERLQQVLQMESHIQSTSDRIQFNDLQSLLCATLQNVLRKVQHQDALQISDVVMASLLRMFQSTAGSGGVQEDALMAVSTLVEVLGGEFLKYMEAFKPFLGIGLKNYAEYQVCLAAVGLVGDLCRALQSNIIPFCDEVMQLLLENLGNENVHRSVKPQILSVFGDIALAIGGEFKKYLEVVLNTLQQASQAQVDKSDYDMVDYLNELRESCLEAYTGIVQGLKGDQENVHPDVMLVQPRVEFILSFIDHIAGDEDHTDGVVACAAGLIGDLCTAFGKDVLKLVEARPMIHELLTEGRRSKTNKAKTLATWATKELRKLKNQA
#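 Inhibition scored from the CFP 486 nm/YFP 530 nm FRET ratio 45 min after adding 0.125 microM importin beta to 50 nM Rango biosensor preincubated 5 min with compound (room temperature, PBS with DTT, Tween-20, BSA). No-importin wells as positive control.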
# GLA inh pH 4.5 – qHTS Assay for Inhibitors of Human alpha-Galactosidase at pH 4.5; Alpha-galactosidase A (Homo sapiens), P06280; purified enzyme, 4-MU-alpha-Gal fluorescence, pH 4.5; activity change, negative = inhibition, % at 105 µM; AID 1467, 2008; 230,000 tested, under 10 active; inconclusive = small, poorly fitted or top-dose-only inhibition, or a rising curve; inactive = flat fitted curve, though single readings scatter; no compound was filed as active;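 further: 0% = full activity with enzyme and -100% = basal without enzyme; dose as in the result columns while the protocol names 77 µM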
# miR-21 FLuc – qHTS Assay for Modulators of miRNAs and/orActivators of miR-21; HeLa miR-21 FLuc reporter, luciferase, 48 h; Potency, µM (top dose mostly 38.3 µM), for inactives: at the highest dose reporter change, positive = more light; 340,000 tested, under 10 active; AID 2288, 2010; active = well fitted rising curve with a large enough effect; inconclusive = small, poorly fitted or top-dose-only effect; inactive = no such curve, though single readings can be large or run the other way;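 further: % of control where 0% means no effect; miR-21 action dims this reporter so a rising signal means less miR-21 action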
#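 Using DMEM plus 10% FBS, HeLa miR-21-FLuc cells are incubated with test compounds (final up to about 40uM) for 48 hours; firefly luciferase signal is then imaged following reagent-mediated lysis.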
# Rango dissoc inh – qHTS Assay for Inhibitors of RanGTP induced Rango (Ran-regulated importin-beta cargo) - Importin beta complex dissociation; Snurportin-1 (Homo sapiens) + GTP-binding nuclear protein Ran (Homo sapiens) + Importin …; Biochemical FRET Rango-importin beta, RanGTP-induced dissociation; Potency, µM (top dose mostly 46.1 µM), inactives show top-dose activity change, negative = inhibition; 0.071% of 340,000 active; AID 540253, 2011; active means falling FRET ratio curve, often poorly fitted, with flat reads before Ran was added; inconclusive means other falling curves, or compound fluorescence or quenching; inactive means flat or rising ratio curve;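 further: potency means the concentration at half of the fitted maximal effect; % of control where 0% means no effect; nearly all actives have a fitted effect of over 45% in size; -100% = wells without RanGTP and RCC1; the record marks most hits as doubtful in a second field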
#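 Rango/importin beta premix (0.1/0.25 uM final), PBS + 1 mM DTT + 0.02% Tween-20 + 0.1% BSA; cpd 5 min RT; FRET pre-read; + RanGTP-RCC1 (0.6 uM Ran, 2 mM GTP, 0.2 uM RCC1); 45 min RT; FRET post-read, ex 430, em 486/530 nm.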
# Starred values were filed as active, the others as inactive; u = inconclusive; x = not tested or not shown. Some of the compounds tested. The share of hits here may be higher or lower than overall.
Molecule	Rango-impB inh	GLA inh pH 4.5	miR-21 FLuc	Rango dissoc inh
C=CCNC(=S)Nc1ccc(OC)c(S(=O)(=O)N2CCOCC2)c1	2.1%	-7	0%	-23%
CNc1nc(C)c([N+](=O)[O-])c(Nc2ccc(OC)cc2)n1	2.3%	x	-1%	5%
COc1ccc(N=c2oc3cc(O)ccc3cc2C(=O)NCC2CCCO2)c(OC)c1 (stereo not given)	u	u	-13%	u
O=C(NCCCn1ccnc1)/C(=C\c1cccnc1)NC(=O)c1ccccc1Br	-3.2%	0	-1%	-3%
O=C(CSc1nncn1-c1cccnc1)N(c1ccccc1)c1ccccc1	3.0%	0	3%	1%
Cc1nn(C(C)C(=O)N2CCc3ccccc32)c(C)c1[N+](=O)[O-] (stereo not given)	3.0%	5	-3%	7%
COc1ccc(NC(=S)N/N=C/c2cccn2Cc2ccc(F)cc2Cl)cc1	-0.4%	0	-2%	-5%
CC(=O)c1cccc(NC(=O)C(C)OC(=O)c2cccc(S(=O)(=O)N3CCN(C)CC3)c2)c1 (stereo not given)	-1.2%	x	x	-14%
CSc1ccccc1NC(=O)CN(c1ccccc1Br)S(C)(=O)=O	-0.3%	0	-2%	-3%
COc1ccc(-c2cc(C(=O)Nc3c(C)n(C)n(-c4ccccc4)c3=O)c3ccccc3n2)cc1	0.6%	x	5%	0%
CCC1Oc2ccc(C)cc2N(CC(=O)N(Cc2ccncc2)Cc2ccco2)C1=O (stereo not given)	0.9%	-7	-1%	11%
NNC(=O)C(Cc1ccc(O)cc1)N1Cc2ccccc2C1=O (stereo not given)	1.3%	x	7%	5%
O=C(O)Cc1ccc2c(c1)N(S(=O)(=O)c1cccc(C(F)(F)F)c1)CC(C(=O)O)O2 (stereo not given)	0.7%	-4	-3%	9%
C=CCn1c(Oc2ccccc2F)nc2c1c(=O)n(C)c(=O)n2C	-0.6%	x	10%	2%
CCNS(=O)(=O)c1ccc(NS(=O)(=O)c2cc(C)ccc2C)cc1	4.8%	0	-5%	-4%
Cc1noc(NS(=O)(=O)c2ccc(NC(=O)C(CC(C)C)N3C(=O)c4ccccc4C3=O)cc2)c1C (stereo not given)	-0.5%	-3	-3%	15%
CCc1nc(SCC(=O)N2CCCC2)c2ccccc2n1	-2.7%	-2	-4%	1%
COc1ccc(NC(=O)CN(C)C(=O)c2cccc(S(=O)(=O)N3CCCc4ccccc43)c2)cc1	0.5%	x	x	-7%
Cc1cc(OCC(=O)NC(Cc2c[nH]c3ccc(O)cc23)C(=O)O)c2c(C)c(C)c(=O)oc2c1 (stereo not given)	0.3%	x	2%	-9%
CCOc1ccc(NC(=O)CSc2nc3[nH]ncc3c(=O)[nH]2)cc1	1.4%	x	x	18%
COc1cc(S(=O)(=O)N2CCN(Cc3cccs3)CC2)ccc1NC(C)=O	1.4%	x	x	-2%
O=S(=O)(c1cccc(-c2csc(-c3cccnc3)n2)c1)N1CCOCC1	3.3%	-23	-10%	-18%
FC(F)(F)c1nc2ccccc2n1CCNc1nc(CN2CCCCC2)cs1	2.2%	x	-4%	9%
CN1CCN(S(=O)(=O)c2cccc(C(=O)NCc3ccccc3Cl)c2)CC1	2.5%	-6	2%	-9%
O=C1CCCN1CCc1cccc2ccccc12	5.5%	x	x	-14%
CCOC(=O)c1snc(-c2ccc(F)cc2)c1N	-7.1%	-3	-41%	14%
CCCOc1ccccc1N/C(=N/c1nc(C)cc(C)n1)NC(=O)Nc1ccc(Cl)cc1	7.9%	7	2%	-3%
COc1ccccc1NC(=O)C(C)Sc1nnc2ccccn12 (stereo not given)	1.7%	x	x	-12%
NS(=O)(=O)c1ccc(NC(=S)NC(=O)/C=C/c2cccs2)cc1	-0.3%	-1	-2%	-5%
COc1ccc(CCNC(C(=O)Nc2cc(C)cc(C)c2)c2ccccc2)cc1 (stereo not given)	-1.0%	x	20%	13%
O=C1CN(C(=O)c2ccc(Cl)nc2)c2ccccc2N1	2.4%	10	3%	1%
COc1ccc(/C=C2/SC(=O)N(CCNC(=O)CC(NC(C)=O)c3ccccc3)C2=O)cc1 (stereo not given)	-3.2%	-6	-21%	8%
O=C(CCN1C(=O)/C(=C/c2ccc(Cl)cc2)SC1=S)Nc1cccnc1	-0.1%	x	-2%	1%
CC(C)CC(=O)N1CC=CC[C@@H](c2ccc(Cl)cc2)N(Cc2ccc(Cl)cc2)C(=O)[C@@H]1Cc1ccccc1	-3.3%	x	x	4%
O=C(Nc1ccccc1)c1ccccc1OS(=O)(=O)c1ccccc1	-0.1%	x	-21%	2%
Cc1nn(C)c(-c2n[nH]c(=S)n2-c2ccccc2)c1Cl	4.3%	-4	-30%	15%

# Next part; the last 2 above are carried over.
Molecule	Rango-impB inh	GLA inh pH 4.5	miR-21 FLuc	Rango dissoc inh
O=C(Nc1ccccc1)c1ccccc1OS(=O)(=O)c1ccccc1	-0.1%	x	-21%	2%
Cc1nn(C)c(-c2n[nH]c(=S)n2-c2ccccc2)c1Cl	4.3%	-4	-30%	15%
CC(C)CCn1c(=O)c2c(nc3n2CCCN3Cc2ccccc2)n(C)c1=O	3.5%	x	0%	-13%
Cc1cc(C)n(-c2nnc(C)n2/N=C/c2ccccc2O)n1	u	-1	-2%	u
COc1cccc([C@@H]2CC=C(C(=O)O)[C@H](c3ccc(Cl)cc3)N2S(=O)(=O)c2ccc(C)cc2)c1	0.3%	x	x	-4%
CN(O)/C=N/C(=S)Nc1ccc(Cl)cc1Cl	3.6%	10	-14%	-3%
COc1ccc(OC2CCN(S(=O)(=O)c3ccccc3)CC2)cc1	2.5%	x	3%	10%
COc1cc(NS(=O)(=O)c2ccc(NC(=O)c3ccc([N+](=O)[O-])cc3)cc2)ncn1	0.8%	x	-3%	0%
CCC(O)C1CCN(Cc2cn(-c3ccc(OC)cc3)nc2-c2cccc(F)c2)CC1 (stereo not given)	-0.4%	-4	-26%	-21%
CC(C)CN(C(=O)c1ccc2c(c1)OCCO2)c1c(N)n(Cc2ccccc2)c(=O)[nH]c1=O	-2.1%	x	x	-2%
CN1CCCC(OC(=O)c2ccc3c(c2)OCCO3)C1 (stereo not given)	2.4%	0	-15%	1%
CCCCn1c(-c2csc(CCC)c2)n[nH]c1=S	-3.3%	-5	0%	-9%
Cc1cc2cc(C)c3nnc(SCC(=O)Nc4ccc(S(=O)(=O)N5CCCCC5C)cc4)n3c2cc1C (stereo not given)	-1.7%	-1	-7%	-3%
O=C(Nc1ccc(-n2cccc2)cc1)C1CC1	2.3%	3	-28%	12%
CCC/C(=C1/c2ccccc2C(=O)N1c1ccccc1)c1ccc(O[C@@H]2CCCCO2)cc1	-2.6%	x	x	6%
CC(C)C(C)NC(=O)COc1ncnc2ccccc12 (stereo not given)	3.7%	-6	-3%	0%
CC(NC(=O)C(=O)NN=C1CCCCCCCCCCC1)c1ccccc1 (stereo not given)	-0.4%	-4	-1%	3%
Cc1ccccc1CN1CCN(Cc2cc3ccccc3o2)CC1CCO (stereo not given)	-2.0%	x	0%	-16%
COc1ccccc1NC(=S)N1CCN(Cc2ccccc2)CC1	0.1%	-18	-6%	4%
CCCCSc1nc(C)c(CC(=O)O)c(=O)[nH]1	9.5%	7	-4%	10%
CN(CC1CCOCC1)C(=O)CC1C(=O)NCCN1Cc1ccc(-c2ccccc2)cc1 (stereo not given)	-3.3%	1	0%	-9%
N#C/C(=C\c1c(Cl)cccc1Cl)c1nc2ccccc2o1	-4.3%	3	-9%	17%
Cc1ccc(S(=O)(=O)c2nc(S(C)(=O)=O)sc2N2CCC(O)CC2)cc1	2.3%	x	8%	16%
O=[N+]([O-])c1ccc(NCCNCCOc2nonc2-c2ccccc2)c([N+](=O)[O-])c1	5.3%	-13	2%	22%
CN(Cc1ccccc1)C(=O)c1ccc(NC(=O)Cc2cccc(NC(=O)C3CCCN(C(=O)C4CCC4)C3)c2)cc1 (stereo not given)	u	x	x	1%
COc1cccc(NC(=O)c2cccc(N3C(=O)C4C5C=CC(C5)C4C3=O)c2)c1 (stereo not given)	-3.2%	x	2%	-1%
Cc1cc(C)cc(NC(=S)N2CCCC2)c1	3.9%	x	-2%	-18%
COCCCN1C(=O)c2ccc(C(=O)Nc3ccc(C)cc3C)cc2C1=O	2.4%	x	0%	3%
CCCNC(=O)C(=O)Nc1cc2c3c(c1)CCC(=O)N3CCC2	-5.9%	x	3%	14%
CCOCCCNC(=O)c1cc(Cl)c(NC(=O)C2=C(C)OCCS2)cc1OC	-1.5%	x	4%	-2%
O=C1CCCN1CCCNS(=O)(=O)c1cccc(F)c1	-1.4%	-8	0%	27%
Cc1cc(C)nc(N2CCCC(C(=O)NCc3ccc4c(c3)OCO4)C2)n1 (stereo not given)	4.6%	-4	1%	-10%
Cc1cc(NC(=O)CCC(=O)N(Cc2cccs2)C(C(=O)NC2CCCC2)c2ccccc2)no1 (stereo not given)	0.4%	4	11%	-2%
N/C(=N\OC(=O)COc1ccccc1)c1cccnc1	7.5%	0	-4%	13%
Cc1[nH]nc(N)c1-c1ccc(Cl)cc1	-1.6%	10	8%	-7%
COC(=O)c1cnn2c(C(F)(F)F)cc(-c3ccco3)nc12	u	22	-2%	u
CC(C)(C)c1ccc(NNC(=O)C2CCC2)cc1	-2.8%	0	-4%	1%
CN(C)C(=S)N=c1ssc(=S)n1Cc1cccnc1	3.3%	x	x	-2%
CNc1nc(Nc2ccc([N+](=O)[O-])cc2)nc(OCC(F)(F)F)n1	-1.0%	x	-2%	12%
CCN(CC)CCCNC(=S)N(Cc1cccnc1)Cc1cc2cccc(C)c2[nH]c1=O	0.5%	-5	7%	9%
COc1ccc([C@@H]2C[C@@H](c3ccccc3)Oc3cc(OC)cc(OC)c32)cc1	1.0%	3	-1%	-9%
Cc1cccc(C(=O)OCC(=O)Nc2sc3c(c2C#N)CCC3)c1	2.0%	2	1%	1%
O=C(CN1C(=O)COc2ccccc21)NCCC1=CCCCC1	-1.5%	-10	-12%	1%
Cc1sc2c(=O)n3c(nc2c1C(=O)NC1CCCCC1)CCCCC3	0.7%	7	-4%	-11%
O=C(Nc1cccc2ccccc12)ON=C1CCCCC1	4.1%	x	x	15%
O=C(CSc1nnc(-c2ccccc2F)o1)NC(=O)Cc1ccccc1	-0.6%	x	x	-14%
CC(=O)N/C(=C\c1ccc(C)o1)C(=O)NCc1ccccc1	-2.9%	x	0%	2%
Cc1ccccc1Nc1nnc(SCc2cc([N+](=O)[O-])cc3c2OCOC3)s1	-1.3%	-6	1%	-9%
COC(=O)C1=CO[C@@H](O[C@@H]2O[C@H](CO)[C@@H](O)[C@H](O)[C@H]2O)[C@H]2[C@@H]1C(=O)C[C@@H]2C	-2.0%	x	x	0%
CCCCOc1ccc(C(=O)NN2CCN(C)CC2)cc1	-0.6%	-2	-4%	-20%
O=C(COc1ccc2c3c(c(=O)oc2c1)CCC3)NCCCN1CCOCC1	-1.6%	x	6%	14%
c1ccc(-c2nc(N3CCN(c4ccccc4)CC3)nc(-n3ccnc3)n2)cc1	0.9%	-16	-7%	-8%
O=C1CN(C(=O)CSc2nnc(Nc3ccccc3)s2)c2ccccc2N1	-1.2%	-5	-11%	-14%

# Screening data deposited in PubChem by National Center for Advancing Translational Sciences (NCATS).
